High-throughput results as filed in PubChem BioAssay.
TRPML1 blocker: human mucolipin-1 channel inhibition; TRPML1-inducible cells, Ca2+ dye fluorescence, FDSS; hits give low values; inhibition of EC80 agonist-evoked calcium signal; activity change, negative = inhibition, % (test concentration not listed); Q9GZU1; 390,000 tested, 0.02% active; AID 624415; in the data active means activity change below about -50%; inconclusive means about -30% to -50%; inactive means above about -30%;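 further: stimulus is agonist 54-4 at its EC80 concentration; on the % scale 0 is the no-effect control and ±100 the full control effect; compound concentration not given in the record; the text of the record puts the active cut at -80%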
Target sequence (Q9GZU1 whole entry, looked up): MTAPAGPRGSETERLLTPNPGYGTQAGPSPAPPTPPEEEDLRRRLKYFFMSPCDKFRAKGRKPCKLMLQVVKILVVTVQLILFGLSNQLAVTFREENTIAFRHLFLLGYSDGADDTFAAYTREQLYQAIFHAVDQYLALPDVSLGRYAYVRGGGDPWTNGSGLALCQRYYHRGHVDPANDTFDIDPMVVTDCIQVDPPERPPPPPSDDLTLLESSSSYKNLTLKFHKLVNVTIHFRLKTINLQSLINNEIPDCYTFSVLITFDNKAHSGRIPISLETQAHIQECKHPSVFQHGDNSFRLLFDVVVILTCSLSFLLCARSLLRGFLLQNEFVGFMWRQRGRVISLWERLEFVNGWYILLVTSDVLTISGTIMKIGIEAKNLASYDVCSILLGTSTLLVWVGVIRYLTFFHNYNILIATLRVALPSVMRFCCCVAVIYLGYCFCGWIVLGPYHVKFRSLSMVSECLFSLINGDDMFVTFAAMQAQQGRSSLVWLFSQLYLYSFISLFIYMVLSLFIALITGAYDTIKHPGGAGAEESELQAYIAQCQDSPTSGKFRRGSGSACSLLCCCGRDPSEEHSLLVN
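Calcium fluorescence in TRPML1-DL cells induced overnight with Tet: a 110 s read after compound pin addition, then a 110 s antagonist read after challenge with 54-4 at 4 uM final (EC80).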
gsp ag: activates gsp, the McCune-Albright syndrome mutation | gsp mutant cells, cAMP HTRF, 30 min; control for the full effect not named in the record | Potency, µM (series often up to 76.9 µM), without a hit: at the highest dose activation (cAMP increase), hits mostly activators | AID 624287 | 340,000 tested, 0.13% active; active = well fitted activation curve with a large enough effect; inconclusive = small, poorly fitted or top-dose-only effect, or another doubt; inactive = no such curve, though single readings can be large or run the other way; cell line not stated here;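 further: phosphodiesterase inhibitor Ro 20-1724 added with compounds to block cAMP breakdown; potency means the concentration at half of the fitted maximal effect; nearly all actives have a fitted effect of over 60% in size; about a fifth of the inactives were tested at one dose only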
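Cells stably selected in G418 were plated at 2000/well, grown 16-24 hr, then given compounds in DMSO with the PDE inhibitor […] (300 uM solution added) for 30 min at 37C; cAMP was read by HTRF.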
Menin-MLL FL inh: displaces fluorescein MLL peptide from human menin; Fluorescence polarization, fluorescein-MLL peptide displacement from menin; FP activity change, % at 61.4 µM; 290,000 tested, under 10 active; AID 1766; inconclusive = falling polarisation curve, or a change in total fluorescence; inactive = total fluorescence flat and polarisation flat or rising; no compound was filed as active; the % refers to the polarisation; negative = inhibition;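 further: % of control where 0% means no effect; inhibitors lower the polarisation; unlabelled MLL peptide was the positive control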
gsp antag: gsp mutant antagonism; gsp-mutant cells, cAMP HTRF, 30 min; control for the full effect not named in the record; Potency, µM (doses to about 76.9 µM), for inactives: at the highest dose activity change, negative = inhibition, usual class: inhibitors; 340,000 tested, 0.4% active; AID 624288; active = falling curve of any shape with a large fitted effect; inconclusive = falling curve, mostly with a smaller effect; inactive = flat or rising curve; cell line not stated here;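 further: intracellular cAMP measured with PDE inhibitor Ro 20-1724 present during compound exposure; potency means the concentration at half of the fitted maximal effect; on the % scale 0 is the no-effect control and ±100 the full control effect; nearly all actives have a fitted effect of over 65% in size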
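HTRF cAMP measurement after 30 min RT detection following 30 min, 37C compound treatment alongside […] (added as 300 uM solution) in G418-selected cells seeded at 2000/well and grown 16–24 h.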
ClpP mod: qHTS Assay for Activators of ClpP. Potency, µM (doses to about 57.5 µM), for the others: top-dose activity change, negative = active. ATP-dependent Clp protease proteolytic subunit (Bacillus subtilis (strain 168)), P80244. 340,000 tested, 1.9% active. purified B. subtilis ClpP, FRET peptide cleavage, 20 min; active = well fitted falling curve with a large enough effect; inconclusive = small, poorly fitted or top-dose-only effect; inactive = no such curve, though single readings can be large or run the other way; further: potency means the concentration at half of the fitted maximal effect; the source files actives as falling curves though it sought activators and does not explain the sign; nearly all actives have a fitted effect of over 65% in size; many hits overshoot -100%
Target sequence (P80244 whole entry, looked up): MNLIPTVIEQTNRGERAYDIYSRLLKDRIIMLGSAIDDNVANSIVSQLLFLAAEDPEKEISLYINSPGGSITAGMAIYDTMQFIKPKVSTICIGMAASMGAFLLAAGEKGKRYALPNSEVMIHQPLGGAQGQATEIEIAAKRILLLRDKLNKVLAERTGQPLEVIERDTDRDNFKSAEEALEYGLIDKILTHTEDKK
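Buffer: 100 mM Tris/HCl pH8, 100 mM KCl, 0.05% low protease BSA, 2.5% glycerol, 0.01% Tween-20. ClpP 10 microg/mL final; 20 min RT; delta FRET normalized to ADEP and DMSO controls.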
TRPV1 potentiator: enhances activation of the human vanilloid receptor TRPV1; AID 540277; potentiation, % at 8.33 µM; 320,000 tested, 0.02% active; TRPV1-expressing cells, Fluo-8 calcium influx, capsaicin EC20 potentiation; host cell line not named in the record; control for the full effect not named in the record; active means potentiation above 80%; inconclusive means 30% to 80%; inactive means below 30%; further: 0% is about no effect
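Cells expressing TRPV1 were dye-loaded with Fluo-8 and read kinetically: 10 s baseline, 3 min after compound (agonist portion), then 2 min after EC20 capsaicin (allosteric enhancer portion). Calcium-bound dye fluorescence at 480/520 nm.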
Sfp PPTase inh: inhibitors of Bacillus subtilis Sfp phosphopantetheinyl transferase | Q9F4F7 | Biochemical Sfp PPTase activity, qHTS | Potency, µM, for inactives: max response, negative = inhibition, hits mostly inhibitors | 310,000 tested, 3.5% active | AID 1490; active means well fitted inhibition curve with a large enough effect; inconclusive means small, poorly fitted or top-dose-only effect, or another doubt; inactive means no such curve, though single readings can be large or run the other way;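 further: the enzyme is Sfp with the accession as filed and its product quenches rhodamine fluorescence; potency means the concentration at half of the fitted maximal effect; 0% = enzyme reaction without inhibitor and -100% = no enzyme wells; top concentration of the series not given in the record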
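After 15 min at room temperature with compound, 15 nM Sfp received 5 uM rhodamine-CoA plus 12.5 uM BHQ-2-ybbR (50 mM Hepes pH 7.6, 10 mM MgCl2). Rate came from the fluorescence difference over 30 min, ex 525/em 598 nm.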
Numbers without * were called inactive; ? = inconclusive; nt = not tested or not shown; & = joins results of further samples; [ ] = another dose, or the depositor's remark.

smiles,TRPML1 blocker,gsp ag,Menin-MLL FL inh,gsp antag,ClpP mod,TRPV1 potentiator,Sfp PPTase inh
O=C(CSc1n[nH]c(-c2cccs2)n1)NC1CCS(=O)(=O)C1 (centres undefined),-11,27%,-4.0,-4%,-10%,1,7%
COc1cccc(CNC(=O)C2CC(=O)N(c3ccc4c(c3)OCCO4)C2)c1 (centres undefined),-10,-10%[15.4 µM],nt,10%,-2.1%,-12,nt
CCOc1ccc(C(=O)C(CCC(CN(C)C)C(=O)c2ccc(OCC)cc2)CN(C)C)cc1 (centres undefined),-6,?,6.5,-14%,0.1%,-12,-20%
O=C(NCC1CCCO1)c1ccc(CS(=O)(=O)c2c(Cl)cccc2Cl)o1 (centres undefined),14,-27%,-0.3,8%,0.2%,-1,21%
O=C(Nc1nnc(-c2ccccn2)o1)c1ccc(Br)cc1,-11,?,5.0,-2%,0.4%,3,25%
CC1C(=O)N2CCCc3cc(S(=O)(=O)N(C)c4ccccc4)cc1c32 (centres undefined),-6,-22%,nt,-10%,-5.5%,-10,-18%
COc1cc2c(cc1OC)C(c1cc3cc(OC)c(OC)cc3[nH]c1=O)N(C(=O)C1CC1)CC2 (centres undefined),4,2%,-0.4,6%,28µM*,nt,50µM*
COc1cc(/C=N/NC(=O)C(C)Nc2n[nH]c(=O)[nH]c2=O)ccc1O (centres undefined),-17,21%[15.4 µM],-3.3,6%,1.1%,-6,14%
Cc1cc(=O)[nH]c(N2CCN(C(=O)c3ccco3)CC2)n1,1,0%,-3.9,2%,nt,-6,6%
COc1ccc(CCNC(=O)C/C(C)=N/NC(=O)C(c2ccccc2)c2ccccc2)cc1OC,-2,-2%[15.4 µM],?,1%,nt,-2,2%

Grouped by structure, those above containing a furan ring, fused or not
smiles,TRPML1 blocker,gsp ag,Menin-MLL FL inh,gsp antag,ClpP mod,TRPV1 potentiator,Sfp PPTase inh
O=C(NCC1CCCO1)c1ccc(CS(=O)(=O)c2c(Cl)cccc2Cl)o1 (centres undefined),14,-27%,-0.3,8%,0.2%,-1,21%
Cc1cc(=O)[nH]c(N2CCN(C(=O)c3ccco3)CC2)n1,1,0%,-3.9,2%,nt,-6,6%

More results
smiles,TRPML1 blocker,gsp ag,Menin-MLL FL inh,gsp antag,ClpP mod,TRPV1 potentiator,Sfp PPTase inh
COc1cccc(OCC(O)CN2C(C)CCCC2C)c1 (centres undefined),4,-3%,-0.7,-2%,-1.8%,4,23%
CCNc1nc(NCc2ccccc2)nc(SCC(N)=O)n1,-7,-21%,-0.5,2%,nt,-8,21%
COC(=O)c1ccccc1N=Nc1c(N)n[nH]c1N,6,-2%[15.4 µM],4.6,-26%,0.0%,nt,-3%
CC(=O)OCC(=O)[C@@]12OC3(CCCC3)O[C@@H]1C[C@H]1[C@@H]3CCC4=CC(=O)C=C[C@]4(C)[C@@]3(F)[C@@H](O)C[C@@]12C,-14,nt,1.1,?,-0.1%,-6,-11%
O=Nc1c(O)n(Cc2ccc(Cl)cc2)c2ccccc12,9,-14%,0.9,?,4.2%,19,?
CCOC(=O)CC(=O)NC(CC(=O)OC)c1ccc(C(C)C)cc1 (centres undefined),8,-1%,3.2,16%,1.4%,2,13%
COc1ccc(-c2cn3cc(C)ccc3n2)cc1F,6,5%[15.4 µM],7.7,-11%,nt,-9,10%
COc1cccc(Nc2c(Nc3cccc(OC)c3)c(=O)c2=O)c1,-5,-3%[15.4 µM],9.0,22%,0.2%,-1,21%
COc1ccc(NC2CCCN(C(=O)c3cccc(C)n3)C2)cc1OC (centres undefined),-4,1%,nt,-21%,0.4%,5,-1%
Cc1cc(C)cc(NC(=S)N2CCC(NC(=O)c3ccc(F)cc3)CC2)c1,-6,-5%[15.4 µM],-16,-13%,-13%,-3,-5%
COc1ccc(C(C(=O)NC2CCCC2)N(C(=O)c2snc(-c3ccc(F)cc3)c2N)c2cccc(F)c2)cc1 (centres undefined),4,?,-1.1,0%,-11%,-4,30%[activator]
COc1ccc(/C=C(/C(=O)c2cccs2)N2C=CC=CC2=C(C#N)C#N)cc1,0,1%,-2.6,-1%,-7.2%,5,3.5µM*
CSc1ccc(CN(C)C(=O)CNC(=O)c2ccc3c(c2)OCO3)cc1,-4,4%,nt,2%,-2.4%,-12,nt
CC(Oc1ccc(Br)cc1)C(=O)Nc1ccc(S(=O)(=O)Nc2nccs2)cc1 (centres undefined),11,0%,nt,?,-1.1%,8,2%
N#Cc1ccsc1NC(=O)C1CCN(S(=O)(=O)c2cccs2)CC1,-1,11%[15.4 µM],nt,-8%,nt,-9,nt
Cc1ccc(-c2nc(CN(Cc3c(C)nn(C)c3C)C(C)C)c(C)o2)o1,-11,-1%[15.4 µM],0.4,-5%,0.7%,3,1%
C=CCOc1nc2c(c(=O)n(Cc3ccc(Cl)cc3)c(=O)n2C)n1C,-7,3%,3.1,5%,-0.6%,-4,3%
CCN1CCN(C(c2cccs2)C(C)NC(=S)Nc2cccc(C)c2C)CC1 (centres undefined),0,-10%[15.4 µM],2.9,13%,nt,2,15%
COc1ccc(-c2csc(NC(=O)c3ccccc3NS(=O)(=O)c3ccc(F)c(F)c3)n2)cc1,4,-13%[15.4 µM],0.3,32µM*,nt,?,-5%
O=C(Nc1cccc(-c2cn3cccnc3n2)c1)c1cccs1,-5,?,0.9,1%,8.8%,15,14%
CN(C)C(=O)N1CCN(c2nc(-c3ccccc3)cs2)CC1,3,-1%,0.7,3%,-0.6%,-15,8%
C=CCN=C1CC(C)(C)CC(=O)/C1=C(\O)CCCN1C(=O)c2ccccc2C1=O,-13,-4%[15.4 µM],-6.3,-24%,0.7%,5,18%
O=c1cc(CO)oc(CN2CCN(c3ccccc3)CC2)c1O,1,-25%,1.7,18%,0.8%,-2,-5%
O=C(Nc1ccc(F)c(Cl)c1)C1CCCC1,19,-16%[15.4 µM],nt,7%,nt,nt,nt
Cc1ccc(S(=O)(=O)NCCC(=O)OCn2nnc3ccccc3c2=O)cc1,-5,17%,4.0,-13%,-5.2%,-20,1%
CCn1c2ccccc2c2cc(NC(=O)C3CCN(S(=O)(=O)c4cccs4)CC3)ccc21,-2,-3%,4.8,-12%,-13%,27,-5%
CCN(CC)c1nc(-c2ccc(Cl)cc2)cc(C(F)(F)F)c1C#N,1,-1%,-0.1,-2%,?,-4,?
COc1ccc(C(=O)N2CCN(c3ccccc3)CC2)cc1S(=O)(=O)N1CCCC1,9,2%[15.4 µM],nt,4%,-1.3%,-3,-4%
CCOC(=O)C1(CCOC)CCN(Cc2ccc3nonc3c2)CC1,-9,14%,3.6,2%,-1.0%,12,14%
Cc1c(Nc2nc3ccccc3nc2N2CCN(c3ccccc3)CC2)c(=O)n(-c2ccccc2)n1C,22,17%,1.5,-18%,-0.8%,25,8%
O=C(NCc1ccc2c(c1)OCO2)c1ccc2c(c1)C(=O)N(CC1CCCO1)C2=O (centres undefined),3,0%,-2.1,-2%[15.4 µM],-2.5%,5,13%
COc1ccccc1-c1noc(-c2ccco2)n1,5,18%,2.2,14%,-14%,28,10%
Cc1ccc(N(CC(=O)N2CCN(c3ccccc3F)CC2)S(=O)(=O)c2c(C)noc2C)cc1,-3&15,-52%[inhibitor],nt,13%,-0.1%&0.6%,-12&16,-8%
COC(=O)[C@H](Cc1ccccc1)NC(=O)NCCc1ccc(F)cc1,-8,13%[15.4 µM],-0.1,-4%,?,-8,26%
CN(C)S(=O)(=O)c1ccc(C(=O)Nc2nnc(SCc3ccccc3)s2)cc1,2,-8%,9.2,9%,-8.0%,11,5%
O=C(COC(=O)CNC(=O)c1cccc([N+](=O)[O-])c1)NCc1ccco1,21,-8%[15.4 µM],-0.2,10%,0.2%,4,4%
CCC(C)(C)n1nnnc1C(c1ccc(N(C)C)cc1)N1CCN(C2CCCCC2)CC1 (centres undefined),3,-26%,-3.5,4%,-0.4%,?,16%
COC(=O)[C@H](NC(=O)c1cc(-c2ccccc2)nc2ccccc12)c1ccccc1,-5,nt,1.3&92,?,-16%,nt,-29%
Cc1ccc(S(=O)(=O)N2CCC(C(=O)N[C@@H](C)C(=O)NC3CCCCC3)CC2)cc1,-12,4%,4.5,16%,1.0%,5,15%
CC(C)N=C(NC#N)SCc1ccccc1,-5,-17%,3.8,4%,-0.4%,28,24%
c1coc(C2=NCCc3ccccc32)c1,24,-23%,-2.3,1%,1.3%,-3,2%
CCOC(=O)N1CCN(CC(=O)NC(=O)Nc2ccc3c(c2)OCCO3)CC1,-8,5%,nt,5%,-1.0%,13,nt
CC(=O)Oc1cc(C(=O)OCC(=O)NC23CC4CC(CC(C4)C2)C3)cc(OC(C)=O)c1OC(C)=O,-30,-24%,nt,-5%,-6.5%,nt,nt
N/C(=N\OC(=O)Nc1ccccc1)c1cccc(C(F)(F)F)c1,-16,-2%,3.5,13%,1.0%,13,25%
Nc1nc(N)c2c(n1)CCCC2,2,20%,-0.5,13%,-0.8%,-10,3%
O=C(NC(=S)NC1CCS(=O)(=O)C1)c1ccccc1F (centres undefined),1,-13%[15.4 µM],nt,6%,-5.9%,0,12%

Compounds from the list above with bromine, in the order listed:
smiles,TRPML1 blocker,gsp ag,Menin-MLL FL inh,gsp antag,ClpP mod,TRPV1 potentiator,Sfp PPTase inh
O=C(Nc1nnc(-c2ccccn2)o1)c1ccc(Br)cc1,-11,?,5.0,-2%,0.4%,3,25%
CC(Oc1ccc(Br)cc1)C(=O)Nc1ccc(S(=O)(=O)Nc2nccs2)cc1 (centres undefined),11,0%,nt,?,-1.1%,8,2%
